Screens as filed in PubChem BioAssay.
Mtb betalactam: beta-lactam sensitization of Mtb H37Rv, H37Rv; M. tuberculosis H37Rv growth with meropenem, percent inhibition; hits of this screen are not shown here; inhibition, % at 25 µM; 330,000 compounds, 0.27% hits;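 active means about 74% or more and at least 40 points above the plate without the antibiotic, then above 30% in a dose series; inconclusive means first-round hits that could not be retested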;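 further: growth measured after seven days incubation then overnight dye step; 0% = bacteria only wells and 100% = bacteria with antibiotic; twin plates without the antibiotic show which effects depend on it; some results filed as inactive read as strong as hits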
Mtb H37Rv: M. tuberculosis H37Rv growth inhibitors, H37Rv strain (AID 1626) | inhibition, % at 10 µM, or IC50 in µM where a hit was titrated | M. tuberculosis H37Rv growth inhibition; higher % means a stronger effect | 220,000 compounds, 0.95% hits;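 active means confirmed in a dose series; inconclusive means inhibition above 80% but not taken into the dose series; inactive means below 80% or under 30% at every dose of the series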;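 further: bacteria incubated seven days before Alamar blue readout; 0% = bacteria only wells and 100% = bacteria with antibiotic wells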
Arbovirus inh: antivirals against arbovirus infection, primary screen, cell-based, full library, 10K replicate subset; arbovirus infection cell-based antiviral screen; inhibition, % at 10 µM; 200,000 compounds, 0.37% hits; AID 1251, 2008;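 active means inhibition from about 30%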;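 further: bluetongue infection of BSR cells; cell survival read as ATP light after 72 h; 0% = infected wells without compound and 100% = uninfected wells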
RecA intein inh: Mtb RecA intein splicing inhibitors, primary screen, biochemical, fluorescence, HTS | inhibition, %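 (about 9 µM by stock and volumes)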 | 290,000 compounds, 0.75% hits | cell-free RecA intein splicing | Protein RecA (Mycobacterium tuberculosis (strain ATCC 25618 / H37Rv)), P9WHJ3; in the data active means inhibition above about 30%; inconclusive means no clear call, values can overlap the other calls;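 further: 0% = vehicle wells and 100% = reference inhibitor control wells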
Target sequence (P9WHJ3 whole entry, looked up): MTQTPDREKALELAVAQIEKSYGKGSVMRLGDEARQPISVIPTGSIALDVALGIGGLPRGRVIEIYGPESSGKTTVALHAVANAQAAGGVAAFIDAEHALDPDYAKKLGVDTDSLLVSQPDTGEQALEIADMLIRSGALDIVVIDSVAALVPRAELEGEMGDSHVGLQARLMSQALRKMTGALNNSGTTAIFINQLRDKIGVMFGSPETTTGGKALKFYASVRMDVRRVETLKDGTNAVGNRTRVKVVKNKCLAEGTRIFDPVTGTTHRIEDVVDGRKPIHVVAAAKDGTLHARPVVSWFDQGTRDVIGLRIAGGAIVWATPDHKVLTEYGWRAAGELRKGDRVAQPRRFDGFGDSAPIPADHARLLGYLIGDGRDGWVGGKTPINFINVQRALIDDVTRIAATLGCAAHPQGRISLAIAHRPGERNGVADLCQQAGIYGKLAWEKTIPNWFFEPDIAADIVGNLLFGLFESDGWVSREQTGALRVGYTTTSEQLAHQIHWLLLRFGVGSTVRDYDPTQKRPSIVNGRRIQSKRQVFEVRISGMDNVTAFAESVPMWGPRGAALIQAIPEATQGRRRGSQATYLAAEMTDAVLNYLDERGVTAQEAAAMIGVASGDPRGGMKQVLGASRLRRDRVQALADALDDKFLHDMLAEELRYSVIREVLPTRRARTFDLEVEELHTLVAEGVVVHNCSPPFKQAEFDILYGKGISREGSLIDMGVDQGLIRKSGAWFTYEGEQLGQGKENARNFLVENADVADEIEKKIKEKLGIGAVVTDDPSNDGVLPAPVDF
YopH PTP inh: YopH tyrosine phosphatase inhibitors, primary screen, biochemical, fluorescence Ex485/Em525; YopH tyrosine phosphatase [Yersinia enterocolitica]; inhibition, %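 (about 10 µM by stock and volumes)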; 140,000 compounds, 0.16% hits;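 active means inhibition of 50% or more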;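 further: controls were vehicle for no effect and minimum signal wells for full effect; inactives centre near -20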
Arbovirus inh repeat: also measured in Arbovirus inh; calls as there; inhibition, %; measured here: 10K subset replicate screen; many hits read low in the repeat;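 first of two repeat runs on a subset; 0% = infected and 100% = uninfected wells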
The depositor's hits bear a star; ? = inconclusive; nt = not tested or not shown. The list is partial (hit frequency here may not be typical).

SMILES	Mtb betalactam	Mtb H37Rv	Arbovirus inh	RecA intein inh	YopH PTP inh	others
Cc1c(Cl)cccc1N=Cc1ccc([N+](=O)[O-])s1	99.5	3.6%	-30.6	-1.0	44.5
CCOc1ccc(C(=O)N2CCN=C2SC)cc1OCC	-7.8	4.7%	0.1	-2.3	-28.6
COC(=O)c1ccc(NC(=S)NC(=O)c2cccnc2)cc1	-15.8	nt	nt	-0.6	nt
O=C(c1cc(-c2ccco2)on1)N1CCN(C(c2ccccc2)c2ccccc2)CC1	nt	-4.4%	13.8	7.8	-34.0
COc1ccccc1-n1c(O)c(C=NCc2ccc3c(c2)OCO3)c(=O)[nH]c1=O	-12.6	-1.6%	0.4	-0.2	0.8
ClC(=C\c1ccccc1)/C=N/N1CCN(c2ccccn2)CC1	45.5	-1.5%	0.5	4.9	-5.9
COc1ccc(OCC(=O)N/N=C/c2ccsc2)cc1	3.8	2.3%	-8.7	-0.9	-18.8
O=C(Oc1ccc(/C=N/NC(=O)c2ccccc2F)cc1)c1ccccc1	8.5	nt	nt	3.0	nt
Cc1[nH]n(-c2ccccc2)c(=O)c1/C=N/NC(=O)c1ccc(O)cc1O	3.4	nt	nt	40.8*	nt
C=C(C)C(=O)Nc1cccc(C2=NOC3(C2)C[C@@H](C(N)=O)N(C(=O)/C=C/C=C/C)C3)c1 (some centres not stated)	0.0	-12.8%	nt	-2.6	nt
N#Cc1ccc(N2CCN(C(=O)c3cccc(F)c3)CC2)c(F)c1	1.0	-1.4%	-1.1	2.0	-13.6	Arbovirus inh repeat=8.0
Cc1ccnc(SCCn2c(N3CCN(c4ccccc4)CC3)nc3c2c(=O)[nH]c(=O)n3C)n1	0.1	nt	-7.3	-0.5	5.1	Arbovirus inh repeat=-3.7
CN(C)/C=C/c1[nH]c(=O)[nH]c(=O)c1[N+](=O)[O-]	0.5	-2.2%	nt	-3.3	nt
CCc1nc2ccccc2n1CC(C)C(=O)O (configuration not stated)	-5.5	-4.2%	9.2	0.3	41.7
O=C(NCCCn1ccnc1)c1ccc(OCC(F)(F)F)cc1	2.3	nt	nt	-0.2	nt

3 compounds picked at random from the list so far:
SMILES	Mtb betalactam	Mtb H37Rv	Arbovirus inh	RecA intein inh	YopH PTP inh	others
C=C(C)C(=O)Nc1cccc(C2=NOC3(C2)C[C@@H](C(N)=O)N(C(=O)/C=C/C=C/C)C3)c1 (some centres not stated)	0.0	-12.8%	nt	-2.6	nt
CCOc1ccc(C(=O)N2CCN=C2SC)cc1OCC	-7.8	4.7%	0.1	-2.3	-28.6
COC(=O)c1ccc(NC(=S)NC(=O)c2cccnc2)cc1	-15.8	nt	nt	-0.6	nt

Next entries follow:
SMILES	Mtb betalactam	Mtb H37Rv	Arbovirus inh	RecA intein inh	YopH PTP inh	others
CCn1c(C(=O)NCCCN2CCc3ccccc3C2)cc2sccc21	-1.7	3.3%	5.0	6.7	-28.8
COc1ccccc1CNC(=O)c1cccc(S(=O)(=O)N2CCN(C)CC2)c1	-14.7	1.5%	0.6	-0.8	nt
O=C(NC1CC1)c1ccc2c(c1)N(Cc1ccc(Cl)cc1)CCS2	2.8	nt	nt	3.0	nt
COc1cc(/C=N/NC(=O)c2ccc(O)cc2)ccc1OCC(=O)Nc1cccc([N+](=O)[O-])c1	10.8	nt	nt	-0.9	nt
COC(=O)c1cccc(-n2c(C)cc(C=O)c2C)c1	4.2	10.4%	0.5	-2.0	-5.3
O=C(COC(=O)CNC(=O)c1ccccc1F)Nc1ccc2c(c1)OCCO2	-4.2	1.2%	-1.7	-1.0	-42.6
COc1ccc(N2CCC(CNC(=O)Nc3ccc(Cl)cc3)C2)cc1 (configuration not stated)	-7.4	45.7%	10.1	1.1	nt
CC1(C)SC2c3ccccc3C(=O)N2[C@@H]1C(=O)O (some centres not stated)	4.1	nt	nt	0.8	nt
CC(O)CNC(=O)Cc1cc(=O)[nH]c(=O)[nH]1 (configuration not stated)	-9.3	-2.4%	nt	1.0	nt
O=C(Nc1cccc(NC(=O)c2cccs2)c1)c1ccc(F)cc1	-2.7	nt	nt	0.2	nt
COc1cc(NC(=O)c2cc(S(=O)(=O)N3CCc4ccccc43)cn2C)cc(OC)c1OC	1.9	nt	nt	-1.8	nt
CCn1c(CSc2nc3ccccc3s2)nc2ccccc21	7.5	1.9%	-4.7	4.8	0.2
COCCN1C(=O)c2[nH]nc(-c3ccccc3O)c2C1c1ccc(OC)cc1 (configuration not stated)	-7.3	-2.6%	nt	-0.1	nt
CCC1(C(=O)OC)CCc2c(cc(OC)c3ccccc23)C1=O (configuration not stated)	18.5	5.6%	nt	nt	nt
C[C@@H](CN1C(=O)C(=O)NC[C@@H]1Cc1ccc(O)cc1)NC(=O)Cc1ccccc1	-9.7	nt	nt	-1.7	nt
COc1ccc(CC(=O)c2ccc(OC3OC(CO)C(O)C(O)C3O)cc2O)cc1 (configuration not stated)	7.3	nt	nt	-2.0	nt
COCCNC(=S)Nc1ccc2nc(N3CCOCC3)cc(C)c2c1	-5.2	nt	nt	-4.9	nt
CCCNC(=O)c1ccc(CN2CCc3ccccc3C2)cc1	-2.7	2.9%	-7.4	1.9	34.6
CN(C)c1ncc(S(=O)(=O)c2ccccc2)c(=O)[nH]1	3.1	nt	nt	-0.7	nt
CN1CCN(C(=O)/C(=C\c2ccc3c(c2)OCO3)NC(=O)c2cccs2)CC1	-0.8	1.7%	21.0	-3.0	nt
O=C(NCCNC(=O)c1cc(OCC(F)(F)F)ccc1OCC(F)(F)F)Nc1ccc(OC(F)(F)F)cc1	-0.5	1.9%	1.9	-0.4	-10.6
Cc1cc(C)cc(NC(=O)CCN2C(=O)c3ccccc3S2(=O)=O)c1	-3.4	nt	nt	-2.3	nt
Oc1c(CN2CCc3ccccc3C2)cc(Cl)c2cccnc12	96.0	7.65µM*	-25.1	12.8	-69.3	Arbovirus inh repeat=-21.2
COc1ccc(N2CC(C(=O)OC(C)C(=O)c3ccccc3)CC2=O)cc1 (configuration not stated)	-2.7	-5.6%	4.8	-1.9	nt
CCN(C(=O)COC(=O)c1oc2ccc(OC)cc2c1C)C1CCCCC1	0.3	nt	nt	-0.1	nt
O=C(CCNS(=O)(=O)c1cccs1)N1CCN(c2cccc(Cl)c2)CC1	5.4	nt	nt	-0.2	nt
CC1(c2ccc(Cl)cc2Cl)OCC(Cn2ccnc2)O1 (configuration not stated)	0.1	-3.2%	-24.3	-2.1	-1.7
CN(Cc1nc(-c2ccccc2)no1)C(=O)c1ccc2c(c1)OCO2	6.5	nt	nt	0.6	nt
CCc1nc2ccccc2c(=O)n1-c1ccccc1OC	-1.2	nt	nt	-1.7	nt
COC(=O)c1oc2ccccc2c1-n1cccc1	2.1	-6.1%	3.6	-0.8	-9.0
S=C1Nc2ccccc2Sc2ccccc21	32.7	79.0%	-3.1	-1.1	nt
O=C1CCC(C(=O)N2CCN(c3ccccc3Cl)CC2)CN1CC1CCCCC1 (configuration not stated)	1.6	nt	nt	6.1	nt
Cc1ccc(S(=O)(=O)NCCC(=O)N2CCN(c3cccc(Cl)c3)CC2)cc1C	12.6	nt	nt	-1.4	nt
CCOc1ccc(-n2c(Cc3cc(=O)[nH]c(=O)[nH]3)nnc2SCC(=O)NC2CCCC2)cc1	6.1	-4.3%	0.9	nt	-38.7	Arbovirus inh repeat=3.5
CCOC(=O)C(=CNCC(=O)OC)C(=O)OCC	2.2	1.8%	1.5	-0.8	-29.0
CC(C)CCn1c(=O)c(C(=O)Nc2ccccc2S(N)(=O)=O)c(O)c2ccccc21	6.2	-11.9%	-9.8	-1.2	-11.1
Cc1cc(CNC(=O)COc2ccc(C#N)cc2)c2ccccc2n1	5.8	5.9%	2.4	-7.7	nt
Oc1ccccc1C=NC(c1ccccc1)C(O)c1ccccc1 (configuration not stated)	-0.8	1.9%	6.9	1.3	2.5
CN(C)c1nc(N)nc(Cn2nnc(-c3ccc(C(F)(F)F)cc3)n2)n1	3.5	6.3%	-2.0	-5.8	nt
CCc1ccc(OCC(=O)Nc2ccc3[nH]ncc3c2)cc1	3.8	nt	nt	-0.9	nt
Cc1ccc(NC(=S)N(Cc2cccs2)Cc2cc3cc(C)ccc3[nH]c2=O)cc1	-2.9	-0.9%	0.1	13.3	-20.4
COc1ccc(CN2CCNC(=O)C2CC(=O)NCc2cn[nH]c2-c2ccccc2)c(F)c1 (configuration not stated)	6.3	nt	nt	5.0	nt
O=C(NCc1ccccc1)C(=O)NCC1OCCN1S(=O)(=O)c1ccc([N+](=O)[O-])cc1 (configuration not stated)	0.9	-2.3%	-2.2	-0.3	nt
O=C(Cc1ccccc1)n1nc(-c2ccccc2)nc1NCc1ccco1	9.4	-1.6%	-1.3	-3.4	-23.4	Arbovirus inh repeat=0.6
O=C(c1cccc(F)c1)N1CCN(C(=O)c2nn3cccnc3c2Cl)CC1	-6.5	0.2%	2.5	-3.2	-32.7

The last 3 records of the section above lead into the next:
SMILES	Mtb betalactam	Mtb H37Rv	Arbovirus inh	RecA intein inh	YopH PTP inh	others
O=C(NCc1ccccc1)C(=O)NCC1OCCN1S(=O)(=O)c1ccc([N+](=O)[O-])cc1 (configuration not stated)	0.9	-2.3%	-2.2	-0.3	nt
O=C(Cc1ccccc1)n1nc(-c2ccccc2)nc1NCc1ccco1	9.4	-1.6%	-1.3	-3.4	-23.4	Arbovirus inh repeat=0.6
O=C(c1cccc(F)c1)N1CCN(C(=O)c2nn3cccnc3c2Cl)CC1	-6.5	0.2%	2.5	-3.2	-32.7
NC1=NC[C@H](Cc2ccc(O)cc2)N1CCc1cccc(F)c1	-3.4	0.0%	nt	1.0	nt
CCS(=O)(=O)NCC(c1ccco1)N1CCN(c2ccc(F)cc2)CC1 (configuration not stated)	-3.4	-5.1%	0.6	0.3	-29.0
COc1ccccc1Cn1c(CO)nc2ccccc21	5.4	9.5%	nt	1.9	nt
CN(C)C=Nc1ccccc1C1C=NNC1=O (configuration not stated)	-1.3	-6.2%	nt	-4.9	nt
O=C(CSc1ncccn1)N1CCN(C(c2ccccc2)c2ccccc2)CC1	-16.2	4.5%	6.5	3.0	2.7
COCCN(C(=O)Nc1ccc(F)cc1F)c1nc2ccccc2s1	0.8	nt	nt	2.2	nt
COc1cccc(-c2cc(C(=O)NCC3CCCO3)c3cc(C)cc(C)c3n2)c1 (configuration not stated)	74.8	nt	nt	0.9	nt
CCn1c(-c2cccnc2Cl)nc2cc(C)c(C)cc21	29.6	6.5%	9.8	-0.6	nt
Cc1ccc(S(=O)(=O)N2CCC(C(=O)N3CCCC3C(=O)N[C@@H](CC(C)C)C(=O)NCC(N)=O)CC2)cc1 (some centres not stated)	-6.3	nt	nt	25.5	nt
Cc1ccc(C(C[N+](=O)[O-])n2nc(C)cc2C)cc1 (configuration not stated)	80.2	1.5%	-6.2	nt	-28.9
CC(C)(C)NC(=O)COc1coc(CN2CCN(C(=O)c3ccco3)CC2)cc1=O	1.2	nt	nt	-0.4	nt
Cc1ccc(S(=O)(=O)N2CCOC2CNC(=O)C(=O)NCCc2ccc(S(N)(=O)=O)cc2)cc1 (configuration not stated)	-9.1	-13.1%	nt	1.7	nt
Cc1c(C(=O)Nc2ccc(-c3nnc4n3CCCCC4)cc2)oc2c1ccc1ccccc12	?	57.4%	-41.0	3.0	-18.3
CC(C)c1ccc(N(C(=O)c2ccco2)C(C(=O)NC2CCCC2)c2cccnc2)cc1 (configuration not stated)	-7.9	nt	nt	2.6	nt
Cc1nnc(Cl)c2nn(-c3ccccc3F)c(C)c12	-3.8	-4.8%	3.8	-1.1	-54.6
Cc1ccc(S(=O)(=O)Cn2nnnc2C(CC(C)C)N2CCC(C(N)=O)CC2)cc1 (configuration not stated)	3.5	nt	nt	-2.7	nt
CCOc1ccc(NC(=O)CC(Cc2ccc(Cl)cc2)C(=O)O)cc1 (configuration not stated)	1.1	nt	nt	0.2	nt
CC(C)N1CCN(Cc2c[nH]c3ccccc23)CC1CCO (configuration not stated)	-5.7	nt	nt	0.2	nt
Cc1ccc(C)c(C2(O)CC(C)N(C)CC2C)c1 (configuration not stated)	4.9	-3.4%	-5.8	-0.2	-41.0
COC(OC)C1(C)C(C#N)=C(N)Oc2c1c(=O)oc1ccccc21 (configuration not stated)	3.1	nt	nt	-4.7	nt
CCC(C)c1ccc2oc(-c3ccc(NC(=O)c4ncn[nH]4)cc3)nc2c1 (configuration not stated)	99.0	63.8%	-6.8	-1.3	-7.3
COC(=O)c1cc2c(s1)-c1cc(F)ccc1OC2	-1.2	0.9%	nt	-29.7	nt
CCOC(=O)c1sc(NC(=O)CNCc2ccccn2)c(C(=O)OCC)c1C	97.0	2.77µM*	nt	-0.5	nt
